# Compound activity deposited in PubChem by Johns Hopkins Ion Channel Center.
# KCNQ2 inh = KCNQ2 channel blockers in CHO-K1 cells – cell-based, FluxOR thallium flux, B-score, primary screen (AID 2156) | O88943 | 20 min; active compounds read low; only compounds with negative scores are shown here; some inactives read as strong as hits | B-score at 10 µM | actives 1.1% (n = 310,000);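 active = fluorescence ratio B-score at most minus 3 library SDs, with starting brightness B-score within 2 library SDs, cut at about -5.5 in these data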
# Target sequence (O88943 whole entry, looked up): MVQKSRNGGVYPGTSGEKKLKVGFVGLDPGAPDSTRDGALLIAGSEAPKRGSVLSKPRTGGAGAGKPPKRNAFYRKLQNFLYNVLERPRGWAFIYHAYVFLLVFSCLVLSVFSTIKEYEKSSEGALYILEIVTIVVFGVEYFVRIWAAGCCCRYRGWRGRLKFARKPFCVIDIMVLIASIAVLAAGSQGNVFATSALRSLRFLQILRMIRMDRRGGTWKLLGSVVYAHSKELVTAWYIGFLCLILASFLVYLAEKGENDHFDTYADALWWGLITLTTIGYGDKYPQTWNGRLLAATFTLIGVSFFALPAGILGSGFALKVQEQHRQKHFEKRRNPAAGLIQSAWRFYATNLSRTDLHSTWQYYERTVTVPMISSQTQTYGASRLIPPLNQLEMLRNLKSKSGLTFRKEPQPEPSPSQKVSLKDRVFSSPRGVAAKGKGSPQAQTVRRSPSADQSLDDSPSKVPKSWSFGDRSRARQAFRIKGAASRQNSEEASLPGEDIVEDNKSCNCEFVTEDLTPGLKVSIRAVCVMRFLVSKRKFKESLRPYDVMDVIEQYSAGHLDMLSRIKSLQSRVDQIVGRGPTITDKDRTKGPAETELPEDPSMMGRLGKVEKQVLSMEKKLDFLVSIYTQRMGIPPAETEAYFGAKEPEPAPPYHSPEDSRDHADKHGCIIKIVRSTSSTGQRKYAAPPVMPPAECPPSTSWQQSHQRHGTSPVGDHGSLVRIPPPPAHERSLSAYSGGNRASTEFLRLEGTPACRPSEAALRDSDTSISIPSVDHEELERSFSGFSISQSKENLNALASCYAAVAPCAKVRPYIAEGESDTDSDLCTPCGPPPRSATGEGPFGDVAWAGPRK
# KCNQ2 inh baseline = also measured in KCNQ2 inh; calls as there; B-score; measured here: initial fluorescence intensity artifact check;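 brightness before thallium and not channel activity; 0 = typical well and far values either way flag optical interference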
# Active calls of the source: *; i = inactive. The list is partial; the hit share may differ from the screen's.
KCNQ2 inh,KCNQ2 inh baseline,Compound
i,-0.4,COc1cc(OC)cc(C(=O)NNC(=O)c2ccc(S(=O)(=O)N3CC(C)OC(C)C3)cc2)c1 (configuration not stated)
i,-0.55,Cc1c(Cl)cccc1NC(=O)Nn1cnnc1
i,0.88,CS(=O)(=O)N1CCN(c2ccccc2NC(=O)Cc2ccc(Cl)cc2)CC1
i,-0.19,COc1ccc(CSc2nnnn2Cc2ccccc2)cc1OC
i,0.09,CSc1nc(O)c(Nc2cccc(Cl)c2)c(=O)[nH]1
i,1.2,Cn1c(=O)c2c(ncn2CC(=O)Nc2nc(-c3ccccc3Cl)cs2)n(C)c1=O
i,0.43,COc1cccc(C(=O)C2=NN(C(C)=O)CC2c2ccco2)c1 (configuration not stated)
i,1.3,Cc1ccc(S(=O)(=O)Nc2csc(C)c2C(=O)O)cc1
i,-0.2,CCN(CC)S(=O)(=O)c1ccc(N2CCCC2)c(NC(=O)c2ccc(OC)cc2OC)c1
i,-0.38,CC(C)c1nc2ccccn2c1NC1CCCCC1
i,0.04,O=C(CN1C(=O)c2ccccc2C1=O)NCCc1c[nH]c2ccc(Cl)cc12
i,0.38,O=C(NC1CCN(C(=O)NC2CCCCC2)CC1)c1cccc(F)c1
i,-0.39,COc1ccc(C2=NOC(C(=O)Nc3ccc4c(c3)OCCO4)C2)c(OC)c1 (configuration not stated)
i,2.1,O=C1/C(=C\c2ccco2)SC(=S)N1c1ccccc1
i,-0.58,CCOc1ccc(-n2c(SCc3ccc([N+](=O)[O-])cc3)nnc2-c2ccc(OC)cc2)cc1
i,0.68,O=C(C1=NN[C@@H]2C(=O)N(Cc3ccccc3)C(=O)[C@H]12)c1ccc([N+](=O)[O-])cc1
i,3.5,CC1(C)Cc2c(sc(NC(=O)COc3ccc(Cl)cc3Cl)c2C(N)=O)C(C)(C)N1
i,0.61,O=C(Oc1cccnc1)c1cc2ccccc2oc1=O
i,-1.4,COc1ccc(C(=O)Nc2cc(C)on2)cc1S(=O)(=O)N1CC(c2ccccc2)CC1=O (configuration not stated)
i,-1.7,CN(C(=O)COC(=O)c1c2c(nc3ccccc13)/C(=C/c1cccc([N+](=O)[O-])c1)CCC2)C1CCS(=O)(=O)C1 (configuration not stated)

# Given tab-delimited: 2 of the compounds above.
mol	KCNQ2 inh	KCNQ2 inh baseline
COc1cccc(C(=O)C2=NN(C(C)=O)CC2c2ccco2)c1 (configuration not stated)	i	0.43
Cc1ccc(S(=O)(=O)Nc2csc(C)c2C(=O)O)cc1	i	1.3

# Quoted at random: six entries already listed, in no set order.
KCNQ2 inh,KCNQ2 inh baseline,Compound
i,-0.58,CCOc1ccc(-n2c(SCc3ccc([N+](=O)[O-])cc3)nnc2-c2ccc(OC)cc2)cc1
i,-0.38,CC(C)c1nc2ccccn2c1NC1CCCCC1
i,0.38,O=C(NC1CCN(C(=O)NC2CCCCC2)CC1)c1cccc(F)c1
i,-0.39,COc1ccc(C2=NOC(C(=O)Nc3ccc4c(c3)OCCO4)C2)c(OC)c1 (configuration not stated)
i,-1.4,COc1ccc(C(=O)Nc2cc(C)on2)cc1S(=O)(=O)N1CC(c2ccccc2)CC1=O (configuration not stated)
i,0.68,O=C(C1=NN[C@@H]2C(=O)N(Cc3ccccc3)C(=O)[C@H]12)c1ccc([N+](=O)[O-])cc1

# The listing picks up with the 5 entries that preceded the break.
KCNQ2 inh,KCNQ2 inh baseline,Compound
i,0.68,O=C(C1=NN[C@@H]2C(=O)N(Cc3ccccc3)C(=O)[C@H]12)c1ccc([N+](=O)[O-])cc1
i,3.5,CC1(C)Cc2c(sc(NC(=O)COc3ccc(Cl)cc3Cl)c2C(N)=O)C(C)(C)N1
i,0.61,O=C(Oc1cccnc1)c1cc2ccccc2oc1=O
i,-1.4,COc1ccc(C(=O)Nc2cc(C)on2)cc1S(=O)(=O)N1CC(c2ccccc2)CC1=O (configuration not stated)
i,-1.7,CN(C(=O)COC(=O)c1c2c(nc3ccccc13)/C(=C/c1cccc([N+](=O)[O-])c1)CCC2)C1CCS(=O)(=O)C1 (configuration not stated)
i,-0.63,CS(=O)(=O)c1ccc(Cl)c(NC(=O)COC(=O)CNC(=O)c2cccs2)c1
i,0.63,CC(OC(=O)CC1CCCC1)C(=O)Nc1ccc(Cl)cn1 (configuration not stated)
i,1.4,Cc1csc(NC(=O)C2CCN(S(=O)(=O)c3cccs3)CC2)n1
i,1.1,O=C(NCc1ccccc1Cl)C1CCC(CNc2c(N3CCCCC3)c(=O)c2=O)CC1 (configuration not stated)
i,1.8,O=S(=O)(NCC1CCCO1)c1cnc(Cl)c(Br)c1 (configuration not stated)
i,2.5,Cc1cccc(N2C(=O)CS/C2=N\NC(=O)c2ccc(Br)cc2)c1C
i,0.43,NC(=O)CN(c1ccc(Oc2ccccc2)cc1)S(=O)(=O)c1ccccc1
i,2.6,CCOC(=O)c1cnc(-n2nc(C)cc2C)nc1NNc1cc(-c2ccccc2)nc(C)n1
i,0.02,CC(C)CCN(C(=O)Nc1ccccc1)C(C)c1cccs1 (configuration not stated)
i,0.61,COc1ccc(C2CC(c3ccc(Cl)c(Cl)c3)Nc3nc(N)nn32)cc1 (configuration not stated)
i,0.15,CCS(=O)(=O)N1CCN(C(=O)c2ccccc2[N+](=O)[O-])CC1
i,-4.5,O=C(O)CSc1nnc(-c2ccc(Cl)cc2Cl)n1-c1ccc(Br)cc1
i,0.01,CCOC(=O)N1CCN(c2ccc(C(=O)c3cccc(F)c3)cc2)CC1
i,-1.4,O=c1c(/C=C(\O)c2ccccc2)nc2ccccc2n1-c1ccccc1
i,-0.7,COc1ccc(NC(=O)c2nc[nH]c2C(=O)N[C@@H](C)c2ccccc2)cc1
i,0.53,O=C(O)c1cc([N+](=O)[O-])c(NCc2cccnc2)c([N+](=O)[O-])c1
i,-0.53,O=C(c1ccc([N+](=O)[O-])o1)N1CCN(c2nc3c(F)cc(F)cc3s2)CC1
i,0.26,O=C(NNS(=O)(=O)c1ccc([N+](=O)[O-])cc1)c1ccncc1
i,1.6,O=C(N/N=C/c1ccncc1)c1nc(-c2ccccc2)n2c1CCCCC2
i,0.2,CN1CCN(/N=C/c2ccc(-c3ccc([N+](=O)[O-])cc3)o2)CC1
i,1.3,Cc1onc(-c2ccccc2)c1C(=O)N/N=C/c1ccc([N+](=O)[O-])s1
i,-0.32,O=[N+]([O-])c1cccc(-c2nc(NCc3ccccc3)c3ccccc3n2)c1
i,-0.63,COCC(C)NC(=O)c1ccc(-n2nc(C(F)(F)F)cc2-c2cccs2)cc1 (configuration not stated)
i,-0.06,CSc1ncccc1C(=O)OCc1ccccc1Cl
i,2.8,CCCN1C2=NS(=O)(=O)CCN2c2ccccc21
i,-1,CCN=C1NN=C(c2ccc(C)cc2)CS1
i,1.8,Cc1cc(C)cc(N(CC(=O)Nc2ccccc2)C2=NC3CS(=O)(=O)CC3S2)c1 (configuration not stated)
i,-1.9,CCOC(=O)Cc1nc(-c2ccc(Cl)cc2)n[nH]1
i,-0.62,O=C(CSc1nnc(NC2CCCCC2)s1)NCc1ccco1
i,0.09,CCOC1OC(=O)C(Cl)=C1Nc1ccccc1C (configuration not stated)
i,-0.84,N#CCn1cc(/C=N/NC(=O)c2cc3c(ccc4ccccc43)o2)c2ccccc21
i,-0.3,COc1ccc(N2C(=O)C(Cl)=C(N3CCCC3)C2=O)cc1
i,0.35,COc1cc(S(=O)(=O)N(C)C2CCCCC2)c(C)cc1C
i,-0.96,Cc1ccc(N(C(=O)CNC(=O)c2ccco2)C(C(=O)NC2CCCC2)c2ccncc2)cc1F (configuration not stated)
i,0.44,O=C1CC(c2cccnc2)c2cc3c(cc2N1)OCO3 (configuration not stated)
i,1.1,Cn1ncc(Br)c1C(=O)N1CCOCC1
i,2.4,COc1cccc(-c2nn(-c3ccccc3)cc2CN(C)C(C)c2ccon2)c1 (configuration not stated)
i,-0.4,NNC(=O)CCc1nc2ccccc2[nH]1
i,1.6,COc1ccc2nc3cccc(OC)c3nc2c1
i,-0.06,Cc1ccc(S(=O)(=O)Nc2c(C)n(C)n(-c3ccccc3)c2=O)cc1C(=O)NCc1ccccn1
i,-2.7,CCCS(=O)(=O)c1nnnn1-c1cccc(OC)c1
i,0.4,CS(=O)(=O)c1ccc(C2=C(c3ccccc3)C(=O)OC2)cc1
i,1.1,COC(=O)c1ccc(CSC2=NCCS2)cc1
i,-3.1,Cc1ccc(S(=O)(=O)Nc2cc(C(C)C)c(O)cc2C)cc1
i,1.3,Cc1nn(-c2ccc(C(=O)O)cc2)c(N)c1-c1ccccc1
i,-0.65,COC(=O)C(NC(=O)COc1ccccc1)(Nc1nc2c(s1)CCCC2)C(F)(F)F (configuration not stated)
i,-1.8,COc1ccc2nc(SCC(=O)Nc3ccccc3)[nH]c2c1
i,-2.6,COc1ccc(OC)c(-n2c(=S)[nH]c3c(sc(=S)n3-c3ccccc3C)c2=O)c1
i,1,Cc1ccccc1-n1c(SCC(=O)Nc2ccccc2)nc2nc3c(cc2c1=O)CCCC3
-8*,-0.9*,CCN(CC)S(=O)(=O)c1ccc(N2CCCCC2)c(C(=O)Nc2ccccc2N2CCOCC2)c1
i,0.05,Cc1cccc(NCc2ccc(O)c3ncccc23)c1
i,-0.06,COc1cc(OC)c(/C=N/n2c(C3CCCCC3)n[nH]c2=S)c(OC)c1
i,0.73,CCNC(=S)N/N=C/c1ccco1
i,-1.1,CCOc1cccc(-c2nc(C(N)=O)c3[nH]c(=O)n(-c4cccc(Cl)c4)c3n2)c1O
i,-1.2,C/C(=N\NC(=O)CNC(=O)c1cccc(F)c1)c1ccc2ccccc2c1
i,-0.67,CC(C)(C)OC(=O)CNC(=O)c1nc[nH]c1C(=O)NCc1ccc(CNC(=O)OC(C)(C)C)cc1
i,-1.9,O=c1c2ccccc2nc(-c2ccc(Br)cc2)n1Cc1ccccc1
i,0.94,COC(=O)c1cc(C(=O)OC)cc(-n2c(C)cc(C(=O)COC(=O)CNS(=O)(=O)c3ccc(C)cc3)c2C)c1
i,1.5,COC(=O)c1ccc(C(=O)OC)c(NC(=O)CN(C)Cc2cccc(Cl)c2Cl)c1
i,0.25,CC1C(=O)N2CCCc3cc(NC(=O)C(=O)NCc4ccc5c(c4)OCO5)cc1c32 (configuration not stated)

# Additional compounds
KCNQ2 inh,KCNQ2 inh baseline,Compound
i,-0.67,CSCCC(NC(=O)c1ccccc1Cl)C(=O)NCC(c1ccco1)N1CCCCC1 (configuration not stated)
i,-1.1,O=C(c1ccc(N2CCCCS2(=O)=O)cc1)N1CCN(c2ccccc2F)CC1
i,2.6,Cc1cc(C)cc(N(CC(=O)NC2CCCCC2)C(=O)c2csnn2)c1
i,-0.51,Cc1cc(=O)n2[nH]c(C)c(-c3ccc(Cl)cc3)c2n1
i,1.9,C/C(=N\NC(=O)CNC(=O)C(c1ccccc1)c1ccccc1)c1ccc(C)cc1
i,-1.1,CCN(CC)CC(O)CN1C(=O)NC(C)(C)C1=O (configuration not stated)
i,0.05,Cc1ccc(-c2nnc(N3CCC(C)CC3)c3ccccc23)cc1C
i,-0.16,O=C(CCCSc1nc2ccccc2c(=O)[nH]1)c1ccc(F)cc1
i,0.58,COc1ccccc1OCC(=O)Nc1ccc(S(=O)(=O)Nc2nccs2)cc1
i,-0.31,COc1ccc(S(=O)(=O)N2CCOCC2)cc1C(=O)Nc1cc(C)on1
i,0.61,CCc1nnc(NC(=O)C2CCC2)s1
i,2,CCc1nnc(NC(=O)CSc2nnnn2-c2cccc(C(=O)OC)c2)s1
i,-0.15,C=CCn1c(SCC(=O)NC2CCCC2)nc2c([nH]c3ccccc32)c1=O
i,-1,COc1ccc(Oc2nc3ccccc3n3cccc23)cc1
i,1.4,Cc1cc(C)cc(NC(=S)NC2CC3CCCC(C2)N3C2CC2)c1 (configuration not stated)
i,-0.26,CCN(Cc1ccccc1)C(=O)COC(=O)CNC(=O)c1ccc(C)s1
i,1,Cc1cc(=O)[nH]c(Sc2c(-c3ccccc3)c3ccccc3[nH]c2=O)n1
i,-0.6,O=C(c1ccc([N+](=O)[O-])cc1)N(C1=NCCCCS1)c1ccccc1
i,0.25,O=C(NCc1cccnc1)C(=O)N/N=C/c1ccc([N+](=O)[O-])cc1
-8.4*,0.26*,CCn1c(=O)c(C(=O)NCc2ccccc2Cl)c(O)c2ccccc21
i,1.4,CC(CCc1ccccc1)NC(=O)CC(C)c1ccccc1 (configuration not stated)
i,0.9,COc1ccccc1/C=N/n1nnnc1N
-6.6*,-0.26*,CCN(CC)S(=O)(=O)c1ccc(N2CCOCC2)c(NC(=O)COc2ccc(Cl)cc2)c1
i,0.02,O=C(CCc1nc(-c2ccc(Cl)cc2)no1)NC1CCCC1
i,0.21,O=C(Nc1cccc(Cl)c1)N1CCc2ccccc2C1
i,2.2,CSc1ncccc1C(=O)OCC(=O)c1ccccc1
i,-1.9,O=C(Cc1ccccc1)N1CCC(c2nc(-c3ccc(F)cc3)no2)CC1
i,-0.58,Cc1cc(C(=O)Cn2nc(C(=O)O)c3ccccc3c2=O)c(C)n1-c1cccc(C(F)(F)F)c1
i,-0.84,CCOc1c(Br)cc(CNc2ccc(N3CCOCC3)cc2)cc1OC
i,0.75,O=C(Nn1cc(C(=O)Nc2ccc(F)cc2F)c2ccccc2c1=O)c1cnccn1
i,0.01,COc1ccc(C)cc1S(=O)(=O)N1CCC(C)CC1
i,3.6,O=C(c1cccc(-c2ccc(O)cc2)c1)N1CCOCC1
i,0.54,O=[N+]([O-])c1cc(C(F)(F)F)cc([N+](=O)[O-])c1N1CCCNCC1
i,0.25,CCOc1ccc(CN(C)CC(O)COC(c2ccc(OC)cc2)c2ccc(OC)cc2)cc1 (configuration not stated)
i,-1.1,Cc1cc(C)cc(N=C2NC(=O)/C(=C/c3cccs3)S2)c1
i,-0.47,COc1ccc(Cl)cc1NC(=O)COC(=O)CCc1cc(OC)c(OC)c(OC)c1
-6.9*,-0.56*,Cc1ccc(S(=O)(=O)NCC(=O)N(c2ccccc2)C(C(=O)NCc2ccccc2)c2ccco2)cc1 (configuration not stated)
i,0.28,COCCNC(=O)C(c1ccc(C)o1)N(C(=O)C(=O)NC1CCCCC1)c1ccc(F)cc1 (configuration not stated)
i,0.96,Cn1c(CCNC(=O)OC(C)(C)C)n[nH]c1=S
i,0.42,CC12CCC(=O)N1C(C(=O)Nc1nnc(SCc3ccccc3)s1)CS2 (configuration not stated)
